Screening results (PubChem BioAssay)
Ecoli rRNA inh: inhibitors of bacterial rRNA selective over humanized ribosomes; AID 720706; E. coli WT GFP vs humanized-ribosome RFP mutants, fluorescence, 24 h; stronger effect = lower value; DMSO median 0, no signal -100; 1.6% of 350,000 active; GFP signal change (wild-type ribosome), % (no concentration beside the values);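 active means significant combined selectivity score with lowered wild-type GFP, culture density cut under 30%, mutant RFP and density less affected; inactive means any of these conditions unmet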; further: one replicate is shown; some compounds called inactive have numbers as strong as hits
T cruzi inh: blocks replication of Trypanosoma cruzi | inhibition, % (no concentration beside the values) | AID 1885 | 1.4% of 300,000 active | T. cruzi beta-gal in NIH3T3, luminescence, 90 h;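 active means mean inhibition across valid replicates above about 55%, limit read from the data; inconclusive means mean below that limit but half or more replicates reach it; inactive means mean below it, under half of replicates reach it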;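 further: signal also drops with host cell toxicity which is not excluded here; 0% = plate median of DMSO wells and 100% = zero luminescence signal; higher percent means less beta-gal luminescence so fewer parasites; stock transfer was 50 nL into about 50 µL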
Bfl-1 A1 inh: inhibitors of the anti-apoptotic protein A1, read as caspase activation | 0.066% of 330,000 active | caspase activation, % (concentration not given with the values) | MEF A1-2A-BIM cells, Caspase-Glo 3/7 luminescence, 3 h; percent of clofoctol response, vehicle zero | AID 2462;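 active means over half of replicate activation scores above 10%, or exactly half above 10 with the replicate mean above 10; inconclusive means replicate mean below 10 yet half the replicates above 10; inactive means over half of replicates below 10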;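 further: wells of about 30 µL received 50 nL stock; many hits fall short of the cut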
RanGTP-Imp inh: inhibitors of RanGTP-importin-beta interaction, primary screen, biochemical, FRET, CFP-Ran, YFP-importin-beta, homogeneous | 1.1% of 300,000 active | cell-free CFP-Ran/YFP-importin-beta FRET ratio | AID 2216 | inhibition, % (concentration not given with the values);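 active means most replicates above 15%; inconclusive means exactly half above 15%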;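 further: 0% = DMSO wells and 100% = Ran loaded with GDP instead of GTP; wells of about 40 µL received 100 nL stock; the first replicate is given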
Calb FLC: affects C. albicans growth with fluconazole; C. albicans CaCi-2 (fluconazole-resistant clinical isolate) + fluconazole, Alamar Blue growth, 48 h; growth inhibition, % (no concentration beside the values); 0.57% of 300,000 active;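 active means most replicates above 75%; inconclusive means exactly half above 75%; inactive means most below 75%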;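 further: all wells also contain fluconazole at 8 µg/ml as a sub-toxic cotreatment; 0% = median of DMSO wells and 100% = median of geldanamycin control wells; wells of about 8 µL received 7.5 nL stock; the first replicate is given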
Beta cell apopt: beta cell apoptosis inhibition; 0.8% of 300,000 active; AID 435005; protection from apoptosis, % (test concentration not listed); INS-1E cytokine-induced death, ATP luminescence, 48 h; percent of positive-control rescue, neutral wells zero;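 active means all replicates at 75% or more, or half of them and the mean; inconclusive means half reach 75% but not the mean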;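 further: 0% = cytokine-treated negative control wells and 100% = positive control rescue; higher means more ATP so stronger rescue from cytokine killing; wells of about 40 µL received 100 nL stock; the first replicate is given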
Vif A3G: inhibitors of Vif binding to APOBEC3G peptide, primary screen, biochemical, TR-FRET, GST-Vif 1-94, biotin-A3G peptide, dose response retest (AID 1117319). TR-FRET GST-Vif / biotin-A3G peptide binding; higher % means a stronger effect; test concentration not given here; strong numbers were not always called active. 0.57% of 260,000 active. inhibition, %, or IC50 in µM where a hit was titrated;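 active means above the screen mean plus three standard deviations and confirmed in dose response; inconclusive means results disagree or hit not tested in dose response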;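 further: Vif residues 1-94 fused to GST binding biotinylated APOBEC3G peptide 110-148; 0% = full assay without inhibitor and 100% = GST in place of GST-Vif; retest series ran down from 100 µM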
MLL AF4-AF9 inh: MLL-AF4/AF9 protein interaction inhibition; AlphaScreen, biotin-AF4 peptide binding to FLAG-AF9; P42568; 0.47% of 350,000 active; inhibition, % at 10 µM;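 active means every replicate reaching a set inhibition limit, whatever the replicate mean, cut at about 25% in these data; inconclusive means mean inhibition reaches that limit but some replicates miss it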;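 further: 0% = plate neutral control median and 100% = total signal loss; the record names both 10 and 1 µM as test concentration; the first replicate is given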
Target sequence (P42568 whole entry, looked up): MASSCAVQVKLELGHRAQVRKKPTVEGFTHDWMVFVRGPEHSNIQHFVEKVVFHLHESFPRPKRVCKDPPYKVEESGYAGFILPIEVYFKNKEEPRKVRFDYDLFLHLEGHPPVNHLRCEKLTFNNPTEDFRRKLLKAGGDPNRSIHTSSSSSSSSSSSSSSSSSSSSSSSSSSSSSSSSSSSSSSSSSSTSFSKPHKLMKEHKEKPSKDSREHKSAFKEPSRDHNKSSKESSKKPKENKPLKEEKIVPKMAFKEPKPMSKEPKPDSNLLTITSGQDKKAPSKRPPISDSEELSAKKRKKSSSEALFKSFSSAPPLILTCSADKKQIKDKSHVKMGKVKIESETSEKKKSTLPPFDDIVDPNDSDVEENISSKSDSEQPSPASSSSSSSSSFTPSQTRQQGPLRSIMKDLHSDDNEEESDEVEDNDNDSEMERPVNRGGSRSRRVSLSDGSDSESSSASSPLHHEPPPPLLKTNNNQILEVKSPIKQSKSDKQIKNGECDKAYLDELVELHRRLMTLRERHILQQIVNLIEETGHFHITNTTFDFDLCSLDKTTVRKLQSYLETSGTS
Ecoli rRNA inh OD600: further read-out of Ecoli rRNA inh, marked with its call; OD600 change, %; measured here: OD600 growth;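 optical density of the mix in the first replicate; 0 = DMSO median and -100 = no signal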
Ecoli rRNA inh RFP: second read-out of Ecoli rRNA inh, no call of its own (marks repeat the call); RFP signal change, %; measured here: RFP humanized mutant strains;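 first replicate; 0 = DMSO median and -100 = no signal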
* = called active by the depositor; & = joins results of further samples.

Screening Cc1nnc(SCC(=O)NNC(=O)c2ccc(Cl)cc2)s1 returned Ecoli rRNA inh 5, T cruzi inh -21, Bfl-1 A1 inh 2.7, RanGTP-Imp inh inconclusive, Calb FLC 2, Beta cell apopt -2, MLL AF4-AF9 inh -2.9, Ecoli rRNA inh OD600 5 and Ecoli rRNA inh RFP -0.9.
`COc1ccc(NC(=S)NCc2cccs2)c(OC)c1` gave Ecoli rRNA inh -2, T cruzi inh -3, Bfl-1 A1 inh 0.7, RanGTP-Imp inh -2.4, Calb FLC -10, Beta cell apopt -4, Vif A3G 5%, MLL AF4-AF9 inh 0.2, Ecoli rRNA inh OD600 4 and Ecoli rRNA inh RFP 12.
Screening CN1CCN(NC(=O)c2ccccc2F)CC1 returned T cruzi inh -8, Bfl-1 A1 inh 0.3, RanGTP-Imp inh 2.7, Calb FLC 1, Beta cell apopt -5 and Vif A3G 15%.
CCc1cn(S(=O)(=O)c2ccccc2OC)nc1N was read as Ecoli rRNA inh 6, T cruzi inh -3, Bfl-1 A1 inh -0.3, RanGTP-Imp inh -0.8, Calb FLC 5, Beta cell apopt -8, Vif A3G -1%, MLL AF4-AF9 inh 2.8, Ecoli rRNA inh OD600 -4 and Ecoli rRNA inh RFP -2.7.
For Cc1ccc(-n2c(C)cc(C(=O)OCC(=O)N3CCOCC3)c2C)cc1 the results were Ecoli rRNA inh -12, Bfl-1 A1 inh 2.1, Beta cell apopt -2, Vif A3G 1%, MLL AF4-AF9 inh 6.2, Ecoli rRNA inh OD600 -13 and Ecoli rRNA inh RFP 3.3.
Screening CCOC(=O)c1ccc(N=c2sc(C(=O)OC)cc(=O)n2CCCN2CCOCC2)cc1 returned Ecoli rRNA inh -11&3, T cruzi inh 20&10, Bfl-1 A1 inh 0.4&0.4, RanGTP-Imp inh 0.6&5.0, Calb FLC -2&-10, Beta cell apopt -1&3, Vif A3G 4%, MLL AF4-AF9 inh 23&17, Ecoli rRNA inh OD600 1&9 and Ecoli rRNA inh RFP 8.2&1.5.
Screening COC(=O)c1ccccc1NC(=O)N1CCN(c2ccccc2F)CC1 returned Ecoli rRNA inh -16, T cruzi inh 3, Bfl-1 A1 inh -0.6, RanGTP-Imp inh 1.9, Calb FLC 21, Beta cell apopt 4, Vif A3G 17%, MLL AF4-AF9 inh -4.5, Ecoli rRNA inh OD600 -22 and Ecoli rRNA inh RFP -2.2.
Screening CN(C)c1ccc(/C=N/NC(=O)c2ccccc2O)o1 returned Ecoli rRNA inh 10, T cruzi inh -15, Bfl-1 A1 inh 0.4, RanGTP-Imp inh inconclusive, Calb FLC -11, Beta cell apopt -3, Vif A3G 29%, MLL AF4-AF9 inh 1.7, Ecoli rRNA inh OD600 11 and Ecoli rRNA inh RFP -0.5.
`Cc1ccn2c(C(=O)CSc3ccc(Cl)cc3)c(C)nc2c1` gave T cruzi inh 9, Bfl-1 A1 inh 0.5, RanGTP-Imp inh -2.1, Calb FLC inconclusive, Beta cell apopt -3 and Vif A3G 3%.
CCOc1ccc(NC(=O)Cn2c(=O)oc3ccccc32)cc1 was read as T cruzi inh -5, Bfl-1 A1 inh -0.2, RanGTP-Imp inh -0.6, Calb FLC -2, Beta cell apopt 0 and Vif A3G 2%.
COc1ccc(C(=O)OCC(=O)NCC2CCCO2)cc1 (stereo unspecified) was read as Ecoli rRNA inh 4, T cruzi inh -11, Bfl-1 A1 inh -0.1, RanGTP-Imp inh inconclusive, Calb FLC 9, Beta cell apopt -2, MLL AF4-AF9 inh -5.1, Ecoli rRNA inh OD600 4 and Ecoli rRNA inh RFP -0.7.
Screening Cc1ccc(Cn2c(SC3CCOC3=O)nc3ccccc3c2=O)cc1 (stereo unspecified) returned T cruzi inh -5, Bfl-1 A1 inh 1.6, RanGTP-Imp inh 2.2, Calb FLC -1, Beta cell apopt -7 and Vif A3G -6%.
For Cc1cccc(C)c1NC(=O)C1CCCN1S(=O)(=O)c1ccc(-c2ccc(=O)[nH]n2)s1 (stereo unspecified) the results were Ecoli rRNA inh -2, T cruzi inh 12, Bfl-1 A1 inh 0.0, RanGTP-Imp inh 0.3, Calb FLC 23, Beta cell apopt -1, MLL AF4-AF9 inh -0.5, Ecoli rRNA inh OD600 0 and Ecoli rRNA inh RFP 0.8.
Screening O=C(COC(=O)c1ccc([N+](=O)[O-])o1)c1ccccc1 returned T cruzi inh 5, Bfl-1 A1 inh -1.5, RanGTP-Imp inh -3.9, Calb FLC -2, Beta cell apopt -2 and Vif A3G -1%.
`COc1cccc(N2C(=O)c3ccncc3C2=O)c1` gave T cruzi inh -5, Bfl-1 A1 inh -0.8, RanGTP-Imp inh 0.5, Calb FLC -5, Beta cell apopt 3 and Vif A3G 1%.
COc1ccc(CCNC(=O)Cn2cnc3c(nnn3Cc3ccc(C)cc3)c2=O)cc1OC was read as T cruzi inh 1, Bfl-1 A1 inh -0.4, RanGTP-Imp inh 3.1, Calb FLC -4 and Vif A3G 4%.
Screening N#Cc1cc(-c2ccccc2)nnc1Oc1ccccc1Cl returned T cruzi inh -12, Bfl-1 A1 inh -0.2, RanGTP-Imp inh 3.2, Calb FLC -1, Beta cell apopt 12 and Vif A3G 8%.
For COc1ccc2c(C(=O)c3ccc(C)cc3)n(CCC(N)=O)[n+]([O-])c2c1 the results were Ecoli rRNA inh -4, T cruzi inh -13, Bfl-1 A1 inh 0.3, RanGTP-Imp inh -5.7, Calb FLC 3, Beta cell apopt 3, MLL AF4-AF9 inh -6.5, Ecoli rRNA inh OD600 5 and Ecoli rRNA inh RFP -6.8.
`Nc1nc(NC(=O)CCCC(=O)O)nn1-c1ccccc1` gave T cruzi inh -21, Bfl-1 A1 inh -0.5, RanGTP-Imp inh 1.2, Calb FLC 10, Beta cell apopt 0 and Vif A3G 3%.
Screening C/C=C/C(=O)OCC(=O)Nc1ccc(C)c(S(=O)(=O)N(C)C)c1 returned Ecoli rRNA inh 10, T cruzi inh -5, Bfl-1 A1 inh 0.4, RanGTP-Imp inh 3.3, Calb FLC -3, Beta cell apopt -11, Vif A3G 6%, MLL AF4-AF9 inh -2.5, Ecoli rRNA inh OD600 4 and Ecoli rRNA inh RFP 0.5.
For CC(=O)c1cccc(NC(=O)c2csc(-n3nc(C)cc3C(F)(F)F)n2)c1 the results were T cruzi inh -12, Bfl-1 A1 inh -1.6, RanGTP-Imp inh 6.7, Calb FLC 32, Beta cell apopt -1 and Vif A3G -29%.
For COc1cccc(NC(=O)CN(C)S(=O)(=O)/C=C/c2ccccc2)c1 the results were Ecoli rRNA inh -11, Bfl-1 A1 inh -0.4, Beta cell apopt 5, MLL AF4-AF9 inh 1.2, Ecoli rRNA inh OD600 -25 and Ecoli rRNA inh RFP -3.8.
Screening COc1cc(C(=O)O)c([N+](=O)[O-])c(OC)c1OC returned Ecoli rRNA inh -5, T cruzi inh -7, Bfl-1 A1 inh 0.5, RanGTP-Imp inh -0.2, Calb FLC -1, Beta cell apopt -2, Vif A3G -1%, MLL AF4-AF9 inh 0.1, Ecoli rRNA inh OD600 3 and Ecoli rRNA inh RFP -2.2.
`CCOc1ccc(S(=O)(=O)NCc2ccncc2)cc1` gave T cruzi inh -65, Bfl-1 A1 inh -0.7, RanGTP-Imp inh -4.7, Calb FLC 11, Beta cell apopt 116* and Vif A3G -2%.
Screening O=C(COC(=O)c1ccc(Br)cc1)Nc1ccccc1Br returned Ecoli rRNA inh 8, T cruzi inh 3, Bfl-1 A1 inh 0.1, RanGTP-Imp inh -2.6, Calb FLC -4, Beta cell apopt -7, MLL AF4-AF9 inh -4.3, Ecoli rRNA inh OD600 12 and Ecoli rRNA inh RFP 1.4.
Screening COc1ccc(C(=O)Nc2cc3c4c(c2)CC(=O)N4CCC3)c(OC)c1 returned T cruzi inh -5, Bfl-1 A1 inh 0.2, RanGTP-Imp inh 0.9, Calb FLC 10 and Vif A3G 5%.
Cc1nn(CC(=O)Nc2ccc(S(N)(=O)=O)cc2)c(=O)c2ccccc12 was read as Ecoli rRNA inh 7, T cruzi inh 5, Bfl-1 A1 inh -2.2, RanGTP-Imp inh 1.4, Calb FLC 5, Beta cell apopt -8, Vif A3G 1%, MLL AF4-AF9 inh -3.9, Ecoli rRNA inh OD600 7 and Ecoli rRNA inh RFP -0.7.
For NC(=O)NC(=O)COC(=O)c1ccc(Cl)c(S(=O)(=O)N(Cc2ccccc2)c2ccc(Cl)cc2)c1 the results were T cruzi inh 5, Bfl-1 A1 inh -0.4, RanGTP-Imp inh -4.3, Calb FLC 45, Beta cell apopt -13 and Vif A3G -3%.
Screening CCOC(=O)C(Cc1ccccc1)(Cc1ccccc1)C(C)=O returned Ecoli rRNA inh -32, T cruzi inh -11, Bfl-1 A1 inh 0.0, RanGTP-Imp inh 1.6, Calb FLC -1, Beta cell apopt -7, Vif A3G 7%, MLL AF4-AF9 inh -6.8, Ecoli rRNA inh OD600 -27 and Ecoli rRNA inh RFP -6.4.
Screening Cc1ccc(S(=O)(=O)N2CCC(C(=O)Nc3ncccc3O)CC2)cc1 returned Ecoli rRNA inh 14, Bfl-1 A1 inh -0.3, Beta cell apopt 0, Vif A3G 3%, MLL AF4-AF9 inh 0.5, Ecoli rRNA inh OD600 9 and Ecoli rRNA inh RFP 5.4.
CCN(C[C@H]1N[C@@](Cc2ccccc2)(C(=O)OC)[C@H]2C(=O)N(Cc3ccccc3)C(=O)[C@@H]12)S(=O)(=O)c1ccc(OC)cc1 was read as Ecoli rRNA inh 10, Bfl-1 A1 inh -0.7, Beta cell apopt 13, Vif A3G -2%, MLL AF4-AF9 inh -1.7, Ecoli rRNA inh OD600 9 and Ecoli rRNA inh RFP 1.2.
For CCCc1[nH]nc2c1C(c1ccc(OCCN3CCOCC3)c(OC)c1)C(C#N)=C(N)O2 (stereo unspecified) the results were T cruzi inh -10, Bfl-1 A1 inh -0.6, RanGTP-Imp inh -0.7, Calb FLC 5, Beta cell apopt -3 and Vif A3G -4%.
`C[C@H](CO)N1C[C@H](C)[C@@H](CN(C)C(=O)NC2CCCCC2)Oc2ccc(NC(=O)NC3CCCCC3)cc2C1=O` gave Ecoli rRNA inh 1&-4, Bfl-1 A1 inh -3.6, Beta cell apopt 6, MLL AF4-AF9 inh -1.8, Ecoli rRNA inh OD600 -1&3 and Ecoli rRNA inh RFP 2.5&2.0.
COc1ccc(CNS(=O)(=O)c2ccc(OC)cc2)cc1 was read as T cruzi inh 0, Bfl-1 A1 inh 0.1, RanGTP-Imp inh 1.5, Calb FLC -6, Beta cell apopt -1 and Vif A3G 1%&-6%.
`c1ccc(Oc2nc(N3CCOCC3)nc(N3CCOCC3)n2)cc1` gave T cruzi inh -5, Bfl-1 A1 inh 0.2, RanGTP-Imp inh -0.8, Calb FLC inconclusive, Beta cell apopt -10 and Vif A3G 1%.
Screening Nc1nc(SCC(=O)NCC2CCCO2)[nH]c(=O)c1NC(=O)c1ccco1 (stereo unspecified) returned Ecoli rRNA inh 9, T cruzi inh -3, Bfl-1 A1 inh 0.3, RanGTP-Imp inh -0.8, Calb FLC -1, Beta cell apopt 0, MLL AF4-AF9 inh -3.0, Ecoli rRNA inh OD600 19 and Ecoli rRNA inh RFP -2.4.

The list is partial; rates above refer to the full screens.
